Calb FLC – affects C. albicans growth with fluconazole; C. albicans CaCi-2 (fluconazole-resistant clinical isolate) + fluconazole, Alamar Blue growth, 48 h; growth inhibition, % (test concentration not listed); hit rate 0.57% among 300,000; AID 1979;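 active means most replicates above 75%; inconclusive means exactly half above 75%; inactive means most below 75%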;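 further: all wells also contain fluconazole at 8 µg/ml as a sub-toxic cotreatment; 0% = median of DMSO wells and 100% = median of geldanamycin control wells; wells of about 8 µL received 7.5 nL stock; the first replicate is given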
RanGTP-Imp inh – inhibitors of RanGTP-importin-beta interaction, primary screen, biochemical, FRET, CFP-Ran, YFP-importin-beta, homogeneous. cell-free CFP-Ran/YFP-importin-beta FRET ratio. inhibition, % (no concentration beside the values). hit rate 1.1% among 300,000;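 active means most replicates above 15%; inconclusive means exactly half above 15%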;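 further: 0% = DMSO wells and 100% = Ran loaded with GDP instead of GTP; wells of about 40 µL received 100 nL stock; the first replicate is given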
Vif A3G – inhibitors of Vif binding to APOBEC3G peptide, primary screen, biochemical, TR-FRET, GST-Vif 1-94, biotin-A3G peptide, dose response retest (AID 1117319); inhibition, %; hits with a dose series show IC50 in µM; hit rate 0.57% among 260,000; TR-FRET GST-Vif / biotin-A3G peptide binding; higher % means a stronger effect; test concentration not given here; strong numbers were not always called active;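 active means above the screen mean plus three standard deviations and confirmed in dose response; inconclusive means results disagree or hit not tested in dose response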;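 further: Vif residues 1-94 fused to GST binding biotinylated APOBEC3G peptide 110-148; 0% = full assay without inhibitor and 100% = GST in place of GST-Vif; retest series ran down from 100 µM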
MLL AF4-AF9 inh – inhibitors of human MLL-AF4/AF9 interaction | inhibition, % at 10 µM | hit rate 0.47% among 350,000 | AlphaScreen, biotin-AF4 peptide binding to FLAG-AF9 | P42568;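 active means every replicate reaching a set inhibition limit, whatever the replicate mean, cut at about 25% in these data; inconclusive means mean inhibition reaches that limit but some replicates miss it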;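 further: 0% = plate neutral control median and 100% = total signal loss; the record names both 10 and 1 µM as test concentration; the first replicate is given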
Target sequence (P42568 whole entry, looked up): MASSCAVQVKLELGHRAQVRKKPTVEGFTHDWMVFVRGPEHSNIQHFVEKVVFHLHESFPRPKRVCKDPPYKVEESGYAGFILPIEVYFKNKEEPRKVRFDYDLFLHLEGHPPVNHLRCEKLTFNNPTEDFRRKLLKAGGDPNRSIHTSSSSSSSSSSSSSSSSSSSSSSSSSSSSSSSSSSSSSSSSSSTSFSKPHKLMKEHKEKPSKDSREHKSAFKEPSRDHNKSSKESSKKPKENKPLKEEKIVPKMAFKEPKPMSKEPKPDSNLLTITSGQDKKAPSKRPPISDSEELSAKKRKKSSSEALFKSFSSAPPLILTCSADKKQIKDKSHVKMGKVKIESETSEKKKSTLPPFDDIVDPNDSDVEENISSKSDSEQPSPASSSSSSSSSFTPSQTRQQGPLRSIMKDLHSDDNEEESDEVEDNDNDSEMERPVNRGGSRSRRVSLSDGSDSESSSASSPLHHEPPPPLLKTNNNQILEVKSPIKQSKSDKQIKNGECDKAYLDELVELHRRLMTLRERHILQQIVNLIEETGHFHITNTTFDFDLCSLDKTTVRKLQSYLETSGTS
Beta cell apopt – beta cell apoptosis inhibition. INS-1E cytokine-induced death, ATP luminescence, 48 h; percent of positive-control rescue, neutral wells zero. hit rate 0.8% among 300,000. protection from apoptosis, % (no concentration beside the values). AID 435005;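 active means all replicates at 75% or more, or half of them and the mean; inconclusive means half reach 75% but not the mean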;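 further: 0% = cytokine-treated negative control wells and 100% = positive control rescue; higher means more ATP so stronger rescue from cytokine killing; wells of about 40 µL received 100 nL stock; the first replicate is given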
T cruzi repl – blocks replication of Trypanosoma cruzi; T. cruzi beta-gal in NIH3T3, luminescence, 90 h; inhibition, % (concentration not given with the values); hit rate 1.4% among 300,000; AID 1885;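 active means mean inhibition across valid replicates above about 55%, limit read from the data; inconclusive means mean below that limit but half or more replicates reach it; inactive means mean below it, under half of replicates reach it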;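 further: signal also drops with host cell toxicity which is not excluded here; 0% = plate median of DMSO wells and 100% = zero luminescence signal; higher percent means less beta-gal luminescence so fewer parasites; stock transfer was 50 nL into about 50 µL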
A1 inh – inhibitors of the anti-apoptotic protein A1, read as caspase activation | MEF A1-2A-BIM cells, Caspase-Glo 3/7 luminescence, 3 h; percent of clofoctol response, vehicle zero | caspase activation, % (concentration not given with the values) | hit rate 0.066% among 330,000 | AID 2462;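 active means over half of replicate activation scores above 10%, or exactly half above 10 with the replicate mean above 10; inconclusive means replicate mean below 10 yet half the replicates above 10; inactive means over half of replicates below 10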;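 further: wells of about 30 µL received 50 nL stock; many hits fall short of the cut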
rRNA inh HTS – inhibits bacterial ribosomal RNA function over humanized ribosomes; GFP signal change (wild-type ribosome), % (concentration not given with the values); hit rate 1.6% among 350,000; E. coli WT GFP vs humanized-ribosome RFP mutants, fluorescence, 24 h; hits give low values; DMSO median 0, no signal -100;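 active means significant combined selectivity score with lowered wild-type GFP, culture density cut under 30%, mutant RFP and density less affected; inactive means any of these conditions unmet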; further: one replicate is shown; some compounds called inactive have numbers as strong as hits
rRNA inh HTS OD600 – recorded beside rRNA inh HTS, whose call it bears; OD600 change, %; measured here: OD600 growth;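 optical density of the mix in the first replicate; 0 = DMSO median and -100 = no signal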
rRNA inh HTS RFP – recorded beside rRNA inh HTS, whose call it bears; RFP signal change, %; measured here: RFP humanized mutant strains;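 first replicate; 0 = DMSO median and -100 = no signal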
Starred values were filed as active, the others as inactive; u = inconclusive; x = no result given; & = joins results of further samples. Not all compounds are listed; rates above refer to the full screens.

SMILES	Calb FLC	RanGTP-Imp inh	Vif A3G	MLL AF4-AF9 inh	Beta cell apopt	T cruzi repl	A1 inh	rRNA inh HTS	rRNA inh HTS OD600	rRNA inh HTS RFP
N#Cc1ccc(C23CC4(C2)[C@H](CN(Cc2ccc(C(F)(F)F)cc2)[C@@H]4c2ccccc2)C3c2ccccc2)cc1 (stereo not given in full)	-10	1.1	x	x	9	4	-0.3	5	3	4.4
Cc1cccc(NC(=O)c2cccc(S(=O)(=O)Nc3ccccc3C(=O)O)c2)c1	0	4.3	x	-2.1	-5	-13	-0.3	-4	-2	1.9
Cc1cc(NC(=O)Cn2cnc3c2c(=O)n(C)c(=O)n3C)n(-c2ccccc2)n1	-3	2.9	2%	x	-1	23	0.6	x	x	x
CCCn1c(SCC(=O)Nc2cccc(S(=O)(=O)NC3=NCCCCC3)c2)nc2ccccc2c1=O	4	5.8	26%	1.3	x	10	0.1	-32	-30	-4.0
Cc1nc(C(=O)NNC(=O)c2ccc(Cl)cc2)cs1	2	4.1	-1%	-19	-1	-3	0.4	-24	-20	-4.9
NC(=S)N(c1ccccc1)c1ccccc1	0	-2.1	-9%	-1.6	-3	-9	0.4	6	-13	-0.8
O=C(COC(=O)c1ccccc1NC(=O)c1ccco1)NCC1CCCCC1	0	-0.2	-6%	x	x	-2	0.7	x	x	x
COc1ccc(Cl)cc1NC(=O)/C=C/C(=O)O	-1	-0.3	-5%	-3.6	-1	-4	2.3	17	11	1.1
CC1(CCc2ccccc2)NC(=O)N(CC(=O)Nc2c(F)cccc2F)C1=O (stereo not given)	x	x	x	-0.6	0	x	1.0	7	3	-0.1
Cc1ccc(C(=O)Nc2nc3n(n2)C(c2ccccc2)CC(=O)N3)cc1 (stereo not given)	9	7.4	-5%	-1.4	-1	-1	0.7	17	13	1.3
CC[C@]12c3[nH]c4ccccc4c3CCN1C(=O)C(CC(=O)NCCN1CCOCC1)C[C@@H]2C(=O)N1CCN(C(=O)c2ccco2)CC1 (stereo not given in full)	x	x	-5%	-4.3	3	x	0.0	6	5	-2.1
CCCCCNC(=O)c1cn(CC)c2cc(N3CCN(C)CC3)c(F)cc2c1=O	10	3.8	1%	-1.1	4	20	-0.5	-61	-77	-16
Cc1cc(Cl)c(OCCOCCN2CCN(C)CC2)c(Br)c1	0	1.2	x	9.9	0	59*	0.5	8	5	0.8
CC1(C)CC(=O)C2=C(C1)N(Cc1ccco1)C(=O)C2(NC(=O)C1CCCCC1)C(F)(F)F (stereo not given)	9	1.1	5%&0%	x	x	-3	0.5	x	x	x
COC(=O)C(Cc1c[nH]c2ccccc12)NC(=O)C1CC1 (stereo not given)	17	3.1	-8%	2.6	-4	-17	0.6	18	8	2.9
N#CCc1cccnc1Sc1ccc(Cl)cc1	1	-0.5	x	x	-4	2	0.6	-12	-5	-2.8
Cc1ccc(Cn2c(N3CCN(CCO)CC3)nc3c2c(=O)n(C)c(=O)n3C)cc1	-7	2.2	-8%	-2.5	-3	4	0.1	-2	5	-1.2
Cc1ccc2[nH]c3c(=O)n(CCN4CCNCC4)cnc3c2c1	-3	-1.5	-10%	x	-6	2	0.9	x	x	x
FC(F)(F)c1cc(Cl)c2nnc(C(F)(F)Cl)n2c1	10	1.4	-5%	-1.8	2	-5	-0.3	8	-4	0.4
Cc1nn(C)c(C)c1/C=N/NC(=O)c1csc2ccccc12	-3	2.3	-1%	x	-11	12	0.3	x	x	x
O=C(COC(=O)c1ccccn1)NC(=O)c1ccccc1	x	x	12%	2.6	1	x	1.2	10	15	-1.8
Cc1ccc(-c2nn(Cc3ccccc3)cc2/C=C/C(=O)O)cc1C	-2	-0.3	-3%	x	-5	-6	0.8	x	x	x
O=C(Cn1c2ccc(F)cc2c2nc3n(c(=O)c21)CCS3)Nc1ccccc1F	4	-2.6	7%	x	-3	23	-0.6	x	x	x
O=C(Nc1nnc(-c2ccncc2)o1)c1ccc(Br)s1	51	0.2	x	-6.4	0	4	-0.1	-28	-54	3.9
O=C(/C=C1\SC(=O)NC1=O)Nc1ccc(F)cc1	21	-1.8	7%	-0.8	2	-5	-1.3	-11	-4	1.7

Continued.
SMILES	Calb FLC	RanGTP-Imp inh	Vif A3G	MLL AF4-AF9 inh	Beta cell apopt	T cruzi repl	A1 inh	rRNA inh HTS	rRNA inh HTS OD600	rRNA inh HTS RFP
Cn1c(SCC(=O)Nc2cccnc2Cl)nc2ccccc21	x	x	-9%	-4.9	-8	x	-0.2	-12	-18	-1.6
COc1ccccc1/C=N/NC(=O)c1ccc(Cn2nc([N+](=O)[O-])cc2C)cc1	-2	-3.1	x	1.2	-1	6	0.2	2	2	-5.5
Cc1ccc(SCCC(=O)Nc2cccnc2)cc1	28	-4.4	x	0.9	x	-2	0.6	-7	-8	-1.8
Cc1ccc(C)c(NC(=S)NNC(=O)c2csc(C(C)C)c2)c1	92*	-0.1	0%	x	-4	13	-1.2	x	x	x
COc1ccc(CCNS(=O)(=O)c2cn(C)nc2C)cc1OC	-1	1.5	5%	-0.1	-2	-15	-0.4	7	8	0.8
CCNc1nc(OC)nc(Oc2ccc(=O)n(-c3ccccc3)n2)n1	-3	-2.2	-2%	x	-1	-3	0.0	x	x	x
COC(=O)c1cc(C(=O)NCC2CCCCC2)cc([N+](=O)[O-])c1	4	3.6	x	4.1	-4	9	0.8	-7	15	-0.3
FC(F)(F)c1ccccc1NC(=S)N1CCCCCC1	-35	x	6%	-3.4	-2	x	1.7	3	7	-2.6
CCN(CC)c1ccc(C(=O)N/N=C(\C)c2ccc(OC)c(OC)c2)cc1	-2	0.4	x	x	-2	-5	0.2	x	x	x
CCNC(=O)c1ccc(-n2nc(C(F)(F)F)c3c2CCCC3)cc1	-2	-0.2	4%	x	-9	21	0.0	x	x	x
O=C(NCC1CCCO1)C(=O)NCC(c1ccco1)N1CCN(c2ccc(F)cc2)CC1 (stereo not given)	-1	-0.4	-7%	-1.0	3	11	-0.4	-1	4	-2.9
CCOCCCNC(=O)C1CCC(=O)N1CCc1ccccc1 (stereo not given)	0	-2.3	-3%	x	0	5	0.2	x	x	x
Cc1cccc2c1-c1sc(C(=O)Nc3cccc([N+](=O)[O-])c3C)cc1CO2	3	-0.6	20%	-22	13	21	-0.1	-7	-10	7.2
Cc1cccc(NC(=O)Cn2ccn(-c3ccc4c(c3)OCCO4)c(=O)c2=O)c1	-1	-0.5	0%	-2.5	-5	-7	0.0	5	9	-1.9
O=C(O)c1ccc(Nc2nc(-c3cc4ccccc4oc3=O)cs2)cc1O	-7	3.5	x	-7.0	x	-11	x	-14	-30	-2.2
O=C(NCc1ccc(Cl)cc1)C1CCCN(c2ncnc3c2nc2n3CCCCC2)C1 (stereo not given)	10	3.2	x	1.2	6	-12	0.4	4	1	-2.7
CC(C)c1ccc(N(C(=O)c2csnn2)C(C(=O)NC(C)(C)C)c2cccnc2)cc1 (stereo not given)	30	-0.1	-8%	0.1	-2	15	0.0	9	5	3.0
COc1ccc(CC(=O)NC(C)CCc2ccccc2)cc1OC (stereo not given)	-5	1.1	-2%	0.4	0	-1	-0.4	8	-1	1.9
CC(=O)NNC(=O)CC(=O)Nc1nc(C23CC4CC(CC(C4)C2)C3)cs1	-2	u	x	-1.8	-4	-3	0.5	x	x	x
CC(C)(C)NC(=O)CSc1nccn1Cc1ccccc1	-6	1.2	6%	x	-12	-7	0.2	x	x	x
COc1cccc(N(CC(=O)Nc2cccnc2)S(C)(=O)=O)c1	-3	1.8	0%	-21	-7	-27	-0.4	8	-2	4.1
COc1ccc(C/C(C)=N/NC(=S)Nc2ccc(C(C)C)cc2)cc1	17	2.3	-8%	x	11	-7	-0.9	x	x	x
CN(C)S(=O)(=O)c1ccc(NC(=O)c2ccccn2)cc1	1	0.9	-1%	x	-4	-7	-2.8	x	x	x
O=C(COC(=O)c1cccnc1Cl)Nc1ccc2c(c1)OCO2	13	-2.0	-9%	-0.7	-6	-5	0.0	5	5	-0.1
Cc1c(C(=O)NC(c2ccccn2)C(F)(F)F)oc2c(F)cccc12 (stereo not given)	5	2.8	x	-1.2	-2	9	-0.3	-1	6	-3.1

Continued.
SMILES	Calb FLC	RanGTP-Imp inh	Vif A3G	MLL AF4-AF9 inh	Beta cell apopt	T cruzi repl	A1 inh	rRNA inh HTS	rRNA inh HTS OD600	rRNA inh HTS RFP
COc1cccc2cc(C(=O)C3=C(O)C(=O)N(Cc4ccco4)C3c3cccnc3)oc12 (stereo not given)	-1	4.7	10%	x	0	-2	-0.3	x	x	x
O=C(c1cccc(Cl)c1)c1nn(-c2ccccc2)c(=O)cc1C(F)(F)F	16	2.9	0%	x	107*	-12	-0.5	x	x	x
CC(C)Oc1cccc(C(=O)C2CCCN(S(=O)(=O)C(C)C)C2)c1 (stereo not given)	3	-0.3	0%	-1.5	-3	-3	-0.8	-13	-18	-6.7
COc1cc(CCC(=O)OCC(=O)Nc2ccc(Br)cc2F)cc(OC)c1OC	0	6.8	x	-3.8	-4	-7	1.6	-4	-15	3.4
CCOc1ccc(S(=O)(=O)N(C)CC(=O)NCc2ccco2)cc1	1	-2.7	x	-2.9	2	-1	0.2	9	10	4.8
CCCCNC(=O)c1cc2c(=O)n3cccc(C)c3nc2n(Cc2ccccc2)c1=N	-18	188*	-8%	-21	x	60*	0.0	12	4	-3.3
CCOC(=O)CCSc1nc(C)c2cc(C)c(C)cc2n1	-4	7.0	x	x	-12	6	-0.4	x	x	x
COC(=O)c1cc2sccc2n1CC(=O)Nc1cc(OC)cc(OC)c1	2	5.9	-2%	6.1	2	15	-1.3	-14	-3	-12
CCOC(=O)Cc1nnc(NC(=O)COc2ccc(F)cc2)s1	16	6.1	0%	x	0	-3	0.0	x	x	x
CCn1c(-c2ccc([N+](=O)[O-])cc2)n[nH]c1=S	4	-0.4	u	x	1	-4	0.0	x	x	x
CCOC(=O)NCCc1c(C)nc2c(c(C)nn2C(C)(C)C)c1C	13	-0.9	3%	x	2	14	-0.3	x	x	x
O=C(CCn1c(=S)[nH]c2cc3c(cc2c1=O)OCO3)NCc1ccccc1Cl	31	-2.9	-3%	1.1	0	-7	-0.3	4	14	0.0
N/C(=N\N=C\c1cccs1)SC1CC(=O)N(c2cccc([N+](=O)[O-])c2)C1=O (stereo not given)	-9	u	3%	0.4	6	-3	-0.4	4	3	0.1
COc1ccccc1N1CCN(C2=CC(=O)CCC2)CC1	-24	0.8	6%	x	-7	-18	0.2	13	9	-2.3

Compound activity from PubChem BioAssay.
